From PubChem BioAssay
Calb FLC = affects C. albicans growth with fluconazole. C. albicans CaCi-2 (fluconazole-resistant clinical isolate) + fluconazole, Alamar Blue growth, 48 h. growth inhibition, % (no concentration beside the values). 300,000 tested, 0.57% active. AID 1979;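 active = most replicates above 75%; inconclusive = exactly half above 75%; inactive = most below 75%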;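 also: all wells also contain fluconazole at 8 µg/ml as a sub-toxic cotreatment; 0% = median of DMSO wells and 100% = median of geldanamycin control wells; wells of about 8 µL received 7.5 nL stock; the first replicate is given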
UCH37 DUB inh = human UCH37 deubiquitinating enzyme inhibition; Q9Y5K5; purified proteasome/UCH37, Ub-AMC cleavage fluorescence; inhibition, % (no concentration beside the values); 330,000 tested, 0.33% active; AID 588478;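 active = mean of two replicates above 20%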;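 also: 0% = compound-free wells with enzyme and 100% = wells lacking proteasome; stock transfer was 100 nL into about 20 µL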
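Signal – fluorescence, ex 355 nm, em 460 nm · System – Proteasome-bound UCH37 · Input – 0.15 nM proteasome as dispensed · Timing – 30 min preincubation with enzyme, 25 min cleavage at room temperature · Read-out basis – percent inhibition of cleavage signal versus uninhibited and no-proteasome wells · Medium – Tris-HCl pH 7.4 with ATP-MgCl2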
RanGTP-Imp inh = inhibitors of RanGTP-importin-beta interaction, primary screen, biochemical, FRET, CFP-Ran, YFP-importin-beta, homogeneous; cell-free CFP-Ran/YFP-importin-beta FRET ratio; inhibition, % (concentration not given with the values); 300,000 tested, 1.1% active; AID 2216;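 active = most replicates above 15%; inconclusive = exactly half above 15%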;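 also: 0% = DMSO wells and 100% = Ran loaded with GDP instead of GTP; wells of about 40 µL received 100 nL stock; the first replicate is given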
LANA-H2B inh = blocks KSHV LANA binding to histone H2A/H2B; Q9QR71; cell-free LANA-H2A/H2B peptide, fluorescence polarization; inhibition, % (no concentration beside the values); 320,000 tested, 0.6% active; AID 2629; in the data active = inhibition mostly above about 10%, no sharp cut-off; inactive = mostly below about 6.7%;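 also: stock transfer was 7.5 nL into about 10 µL; 0% = median of vehicle wells and 100% = median of positive control wells; one replicate is shown; the record names a cut of 25% in any replicate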
Target sequence (Q9QR71 whole entry, looked up): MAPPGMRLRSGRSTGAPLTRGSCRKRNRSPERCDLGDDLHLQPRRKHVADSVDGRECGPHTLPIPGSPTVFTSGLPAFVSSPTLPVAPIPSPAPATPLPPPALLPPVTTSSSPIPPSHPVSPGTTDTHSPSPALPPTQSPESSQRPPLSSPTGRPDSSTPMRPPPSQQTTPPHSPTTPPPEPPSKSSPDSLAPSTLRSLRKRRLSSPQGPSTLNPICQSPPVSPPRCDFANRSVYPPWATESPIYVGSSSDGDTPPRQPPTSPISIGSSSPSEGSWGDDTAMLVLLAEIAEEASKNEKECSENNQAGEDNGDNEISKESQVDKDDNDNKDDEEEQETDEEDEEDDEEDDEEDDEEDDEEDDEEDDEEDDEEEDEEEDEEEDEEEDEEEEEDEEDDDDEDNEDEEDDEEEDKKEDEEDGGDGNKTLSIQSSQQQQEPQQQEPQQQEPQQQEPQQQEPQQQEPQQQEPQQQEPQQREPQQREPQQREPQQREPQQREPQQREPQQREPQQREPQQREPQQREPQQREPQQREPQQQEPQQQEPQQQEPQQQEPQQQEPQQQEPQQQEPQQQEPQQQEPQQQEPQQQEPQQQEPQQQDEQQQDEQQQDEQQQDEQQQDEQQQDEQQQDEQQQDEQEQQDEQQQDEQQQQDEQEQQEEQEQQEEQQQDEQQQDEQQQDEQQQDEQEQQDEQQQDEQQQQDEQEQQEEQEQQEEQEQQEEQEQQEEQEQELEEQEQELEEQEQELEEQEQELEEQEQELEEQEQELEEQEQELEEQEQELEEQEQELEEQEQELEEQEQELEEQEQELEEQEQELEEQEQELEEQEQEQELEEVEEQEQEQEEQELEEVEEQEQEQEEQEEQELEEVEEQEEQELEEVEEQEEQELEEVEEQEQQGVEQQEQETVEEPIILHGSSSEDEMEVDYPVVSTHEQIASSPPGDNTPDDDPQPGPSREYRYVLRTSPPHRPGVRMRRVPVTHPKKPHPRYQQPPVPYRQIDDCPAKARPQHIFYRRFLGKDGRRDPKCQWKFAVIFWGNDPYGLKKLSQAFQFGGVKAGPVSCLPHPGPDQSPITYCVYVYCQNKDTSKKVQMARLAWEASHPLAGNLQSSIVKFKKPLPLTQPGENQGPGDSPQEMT
B2AR ag = activates human beta-2 adrenergic receptor causing internalization | P07550 | Am2.2-beta2AR cells, FAP receptor internalization, flow cytometry; reference of the scale not given here | response, % (test concentration not listed) | 340,000 tested, 0.43% active | AID 504454;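 active = response above a set limit, near 3 SD of response in nonfluorescent compounds, cut at about 42% in these data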;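 also: stock transfer was 100 nL into about 11 µL; a reference agonist was the positive control; negative values mostly stem from fluorescent compounds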
Beta apoptosis = blocks beta cell apoptosis | INS-1E cytokine-induced death, ATP luminescence, 48 h; percent of positive-control rescue, neutral wells zero | protection from apoptosis, % (no concentration beside the values) | 300,000 tested, 0.8% active;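 active = all replicates at 75% or more, or half of them and the mean; inconclusive = half reach 75% but not the mean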;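 also: 0% = cytokine-treated negative control wells and 100% = positive control rescue; higher means more ATP so stronger rescue from cytokine killing; wells of about 40 µL received 100 nL stock; the first replicate is given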
Bfl-1 A1 inh = inhibitors of the anti-apoptotic protein A1, read as caspase activation; 330,000 tested, 0.066% active; MEF A1-2A-BIM cells, Caspase-Glo 3/7 luminescence, 3 h; percent of clofoctol response, vehicle zero; caspase activation, % (no concentration beside the values);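 active = over half of replicate activation scores above 10%, or exactly half above 10 with the replicate mean above 10; inconclusive = replicate mean below 10 yet half the replicates above 10; inactive = over half of replicates below 10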;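 also: wells of about 30 µL received 50 nL stock; many hits fall short of the cut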
T cruzi repl = T. cruzi replication inhibition. T. cruzi beta-gal in NIH3T3, luminescence, 90 h. inhibition, % (test concentration not listed). 300,000 tested, 1.4% active;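 active = mean inhibition across valid replicates above about 55%, limit read from the data; inconclusive = mean below that limit but half or more replicates reach it; inactive = mean below it, under half of replicates reach it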;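 also: signal also drops with host cell toxicity which is not excluded here; 0% = plate median of DMSO wells and 100% = zero luminescence signal; higher percent means less beta-gal luminescence so fewer parasites; stock transfer was 50 nL into about 50 µL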
* hit, by the source's call; ? = inconclusive; . = no result given.

Every second line gives: Calb FLC, UCH37 DUB inh, RanGTP-Imp inh, LANA-H2B inh, B2AR ag, Beta apoptosis, Bfl-1 A1 inh, T cruzi repl
> COc1nc(NCc2cccnc2)nc(NC2CCCCC2)n1
  -6.0, 3.0, 0.1, 4.8, 1.4, 3.5, ?, 1.8
> COc1cc(OC)c2ccc(=O)oc2c1C(CC(=O)N1CCCC1)c1ccc(N(C)C)cc1 (stereo unspecified)
  -3.3, 4.8, 7.2, -1.9, -13.3, 3.2, -0.7, -11.1
> COc1cc(/C=C/C(=O)OCC(=O)NCc2cccs2)ccc1OC(F)F
  0.7, -11.7, -2.6, -2.7, -2.9, -4.1, -0.1, 7.1
> O=C1CSC(c2ccccc2)N1CC12CC3CC(CC(O)(C3)C1)C2 (stereo unspecified)
  7.1, 1.3, 0.3, 6.1, -3.8, -1.1, 0.3, -7.9
> Cc1ccc(CCNS(=O)(=O)c2ccc3c(c2)C(C)(C)C(=O)N3C)cc1
  4.3, -2.6, -3.2, 12.0, 2.2, 0.7, -0.8, -5.2
> COc1cc(SC#N)ccc1N=Cc1c(C)[nH]n(-c2ccc(C)c(C)c2)c1=O
  10.6, 9.4, 2.8, 11.5, 10.4, 78.9*, 2.0, 28.4
> Cn1c(/C=C/c2ccc(Cl)cc2)nc2ccccc2c1=O
  ?, -139.1, 19.7*, -1.1, -2.9, 0.4, -1.4, 22.1
> O=C(CSc1nc2c(c(=O)n1-c1ccc(Cl)cc1)SCC2)NCc1ccco1
  -3.6, 6.0, 1.5, 1.5, -0.8, ., 0.0, 7.3
> COCCNC(=S)NC(=O)CC12CC3CC(CC(C3)C1)C2
  18.7, 1.7, 6.1, 6.4, -2.6, 0.9, 0.4, 27.3
> Clc1ccc(-c2nnc(SCc3ccon3)o2)c(Cl)c1
  13.3, 0.9, 2.9, 5.8, -7.8, -2.0, -5.8, 10.2
> COc1ccc(NC(=O)CSc2ccc(-c3ccccn3)nn2)cc1OC
  -21.8, 4.0, 1.0, ., -12.6, -3.9, -0.2, -3.9
> Cc1cc(NC(=O)NCC(F)(F)F)no1
  0.4, 1.9, 0.1, 0.9, 3.0, 0.9, 0.6, -21.5
> O=C(NCc1ccccc1)C1=C[C@H](c2ccc(C(F)(F)F)cc2)C[C@H](OCCCCO)O1
  -1.1, ., 2.8, -4.9, -9.7, 0.4, 1.5, 8.8
> CC(=O)NS(=O)(=O)c1ccc(NC(=O)c2ccc3c(c2)OCO3)cc1
  -6.9, 3.2, -7.9, ., -6.1, ., ., -1.4
> CC1CCN(C(=S)c2ccc(-c3ccc(Cl)cc3Cl)o2)CC1
  -4.6, 6.6, -2.6, 3.2, 3.8, 3.4, -0.2, -1.9
> CCN(C(=O)CSc1nnc(SC)s1)c1c(N)n(Cc2ccccc2)c(=O)[nH]c1=O
  ., 0.7, ., 0.6, 1.1, -4.6, -0.5, .
> COCCNC(=O)c1cc(S(=O)(=O)N(C)c2ccccc2OC)ccc1C
  -3.3, 5.6, 1.3, -0.4, 12.2, -5.4, 0.0, -7.2
> Cc1ccc(N(CC(=O)Nc2c(C)cccc2C)S(C)(=O)=O)cc1
  -5.9, 3.3, 3.7, 2.0, -6.4, -1.7, -3.7, -4.4
> CCN(CC)C(=O)C[n+]1cccc(/C=N/O)c1
  -4.5, ., 2.5, -4.9, 0.4, 0.2, -0.3, -4.4
> COc1cc(C(=O)OCC(=O)Nc2ccc(F)cc2F)cc(OC)c1OC
  -1.3, -0.6, 1.5, 0.3, 1.8, -8.1, -0.3, 1.2
> Cn1c2c(c(=O)n(C)c1=O)C(NC(=O)c1cccs1)(C(F)(F)F)C(=O)N2 (stereo unspecified)
  ., 1.5, ., 3.2, -1.2, -6.3, 0.0, .
> O=C(COCC(=O)Nc1cccc(C(F)(F)F)c1)Nc1cccc(C(F)(F)F)c1
  -9.2, 4.0, -2.8, -0.3, -1.8, -10.2, -0.6, -6.6
> COc1ccc(C(CNC(=O)c2ccc(-c3nc4ccccc4s3)o2)N2CCCC2)cc1 (stereo unspecified)
  ., -33.9, ., ., 26.2, -2.9, -1.5, .
> Cc1[nH]c2ccccc2c1-c1csc(NC(=O)CSCCO)n1
  19.3, 2.8, 9.3, -4.0, -2.9, -1.9, 0.6, 1.1
> CCOC(=O)Cc1nnc(NC(=O)C(CC)Sc2nc(C)cc(=O)[nH]2)s1 (stereo unspecified)
  -2.1, 1.9, 5.2, -2.7, -9.2, -3.7, 1.5, -15.4
> O=C(NC(N1CCOCC1)C(Cl)(Cl)Cl)c1ccco1 (stereo unspecified)
  0.5, 0.5, 3.8, 0.1, 4.9, ., -0.8, -4.6
> COc1ccc(N(C(C)=O)c2nc3ccccc3[nH]2)cc1
  -3.4, 3.0, 5.0, -4.4, -7.6, ., 0.1, -11.8
> Cn1cc(-c2nnc(-c3ccccc3)o2)c2ccccc21
  8.9, -67.6, -1.4, 2.0, -0.5, 4.4, -5.2, -2.3
> O=C(CCn1c(=O)[nH]c2ccsc2c1=O)N1CCN(c2ccc([N+](=O)[O-])cc2)CC1
  32.7, 6.2, 0.4, 0.3, -11.0, 2.9, 0.3, -8.2
> Cc1ccc(CNC(=O)Cn2cccc2C(=O)c2ccccc2)cc1
  -7.2, 0.4, -0.7, -1.5, 1.4, -7.2, 0.4, -11.7

Gathered by group, those above with two or more sulfur atoms (4)
Every second line gives: Calb FLC, UCH37 DUB inh, RanGTP-Imp inh, LANA-H2B inh, B2AR ag, Beta apoptosis, Bfl-1 A1 inh, T cruzi repl
> O=C(CSc1nc2c(c(=O)n1-c1ccc(Cl)cc1)SCC2)NCc1ccco1
  -3.6, 6.0, 1.5, 1.5, -0.8, ., 0.0, 7.3
> CCN(C(=O)CSc1nnc(SC)s1)c1c(N)n(Cc2ccccc2)c(=O)[nH]c1=O
  ., 0.7, ., 0.6, 1.1, -4.6, -0.5, .
> Cc1[nH]c2ccccc2c1-c1csc(NC(=O)CSCCO)n1
  19.3, 2.8, 9.3, -4.0, -2.9, -1.9, 0.6, 1.1
> CCOC(=O)Cc1nnc(NC(=O)C(CC)Sc2nc(C)cc(=O)[nH]2)s1 (stereo unspecified)
  -2.1, 1.9, 5.2, -2.7, -9.2, -3.7, 1.5, -15.4

(further entries)
Every second line gives: Calb FLC, UCH37 DUB inh, RanGTP-Imp inh, LANA-H2B inh, B2AR ag, Beta apoptosis, Bfl-1 A1 inh, T cruzi repl
> COc1cccc(C(=O)NNc2c3ccccc3nc3ccccc23)c1
  17.0, 1.7, 16.0*, 4.4, -8.0, 25.6, -0.1, 19.3
> CCN(CC(=O)Nc1c(F)cccc1F)C(=O)Cc1ccsc1
  ., -1.0, ., -1.6, 2.1, 0.7, 0.4, .
> COC(=O)C1=C(CCc2ccccc2)NC(=O)NC1c1ccc(Br)cc1 (stereo unspecified)
  10.7, 1.7, 4.2, -2.4, -1.6, 4.7, 1.4, 2.6
> CCOC(=O)C1=C(NC(=S)NC(=O)c2ccccc2)c2ccccc2CC1C(C)C (stereo unspecified)
  -2.3, 1.3, -2.2, -1.9, 3.4, 2.6, 0.5, 13.4
> COc1ccc(-c2cc(C(=O)Nc3sc4c(c3C#N)CCCC4)c3ccccc3n2)cc1OC
  6.4, -11.2, 1.6, 1.5, -1.8, 18.5, -0.8, 5.1
> CCOC(=O)c1sc(NC(=O)/C=C/c2c(F)cccc2Cl)nc1C
  -3.1, -31.9, 1.1, -6.6, -4.5, -1.6, 0.5, -10.4
> CCC(C)NC(=O)c1cc(-c2ccc(OC)cc2)on1 (stereo unspecified)
  13.4, -0.5, 2.9, ., 3.8, ., ., 3.4
> COc1ccccc1NS(=O)(=O)c1cccc(C(=O)NN)c1
  -0.8, 1.6, -4.7, 0.4, -0.5, 11.2, 0.3, 0.9
> COc1cc(NC(=O)CSc2nc3ccccc3c(=O)n2C)ccc1NC(=O)c1ccco1
  2.3, -19.4, -2.1, 3.1, -5.5, ., -0.7, 29.7
> Cc1c(NC(=O)c2ccc(Br)o2)cccc1C(=O)O
  -9.4, 3.2, 4.8, 2.3, 0.9, -3.1, -7.0, -28.5
> Cc1occc1C(=O)NC(C)c1ccc2c(c1)OCO2 (stereo unspecified)
  -3.6, -2.0, 3.1, -1.1, 10.3, -4.2, -0.7, 14.3
> Cc1cc(C(=O)CSc2nnc3ccccn23)c(C)n1-c1ccccc1
  5.1, 6.4, -0.4, -2.2, -4.0, 0.7, -9.3, 13.7
> Cc1nn(CC(=O)NCc2ccccc2F)c(C)c1[N+](=O)[O-]
  2.6, 1.7, 2.4, 0.0, 5.8, -5.2, -0.8, -9.9
> Cc1ccc(Cl)cc1NC(=O)C1C2CCC(O2)C1C(=O)O (stereo unspecified)
  -0.5, 2.8, 2.7, -1.8, 4.0, -0.6, 0.8, -10.4
> CCOC(=O)NC(=O)/C(C#N)=N/Nc1ccc(F)cc1
  30.0, ., -0.8, 4.1, 0.3, -3.2, 0.0, -8.9
> Cc1ccc(-c2ccc(=O)n(Cc3c(F)cccc3Cl)n2)cc1
  -3.1, -0.4, -0.1, 4.0, 0.5, 1.0, -0.4, 3.1
> O=C(COC(=O)c1ccc(S(=O)(=O)N2CCCC2)cc1)NCc1ccc(Cl)cc1
  -6.8, 0.3, -3.1, 2.8, 7.2, 1.6, -0.1, -15.6
> Nc1cc(-c2ccc(Cl)cc2)nn1-c1ccccc1
  5.3, 3.5, 0.7, 1.5, 1.3, -3.6, -2.1, 0.1
> COc1ccc(CCN2C(=O)NC(NS(=O)(=O)c3ccc(NC(C)=O)cc3)(C(F)(F)F)C2=O)cc1OC (stereo unspecified)
  -6.1, 0.2, 0.5, 3.9, -7.4, -0.9, 1.5, -17.9
> CCOC(=O)c1cc2sccc2n1Cc1ccc(C#N)cc1
  1.7, 4.6, 7.9, 0.7, -1.8, 1.3, 2.1, 13.5
> COc1ccc(-n2c(SCC(=O)Nc3cccc(C(=O)O)c3)nnc2-c2ccco2)cc1
  22.4, -1.8, 0.3, -5.7, -6.6, -0.4, 0.1, -13.5
> CCNC(=O)COc1ncnc2scc(-c3ccc(F)cc3)c12
  -38.1, 2.0, -5.2, -6.0, 5.7, -1.7, 0.8, 12.3
> COC(=O)c1ccccc1NC(=O)CCS(=O)(=O)c1ccc(Br)cc1
  11.5, 2.4, 2.9, ., 1.2, ., ., 1.5
> C/C(=N\NC(=O)c1ccn(C)n1)c1ccc(NC(=O)c2cccc(F)c2)cc1
  -6.3, ., 0.4, -1.4, 8.7, 6.1, 0.6, 1.8
> Cc1c2c(nc3c(C(=O)NC4CCCCC4C)cnn13)CCCC2 (stereo unspecified)
  17.3, -64.2, 0.2, -5.7, ., 3.9, -0.1, -14.5
> CCOc1ncccc1C(=O)NCCc1ccc(OC)cc1
  -2.7, 4.8, 6.9, -0.3, 5.2, -2.7, -0.2, -1.7
> Cc1cccc(C(=O)OCC(=O)NC23CC4CC(CC(C4)C2)C3)c1O
  ., 2.3, ., 3.7, 2.4, 0.2, -0.4, .
